BJeLR lethal: BJeLR cell viability loss | BJeLR (HRASV12) viability, CellTiter-Glo ATP luminescence, 48 h; reference of the scale not given here | inhibition, % (test concentration not listed) | hit rate 0.17% among 300,000 | AID 1554;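 active = replicate mean above 50%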;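 note: 50 nL library stock added to about 25 µL; numbers are from one replicate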
PrP 5UTR inh: suppresses PrP 5' UTR mRNA reporter expression. cell-based PrP 5' UTR mRNA reporter, plate reader. hit rate 0.35% among 340,000. inhibition, % (test concentration not listed). AID 488862;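 active = every replicate at 50% or more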;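 note: 0 = median of the neutral control wells; tested in H4 reporter cells; numbers are from one replicate; inactives centre near -14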
Bead autofluor: compound fluorescence in toxin protease inhibitor counterscreen; compound autofluorescence counterscreen, microsphere flow cytometry; active compounds read high; fluorescence intensity (test concentration not listed); hit rate 3.1% among 360,000; AID 624483;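 active = at least 3 SD above the mean of all compounds, about 16000 in these data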;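 note: 100 nL of 1 mM stock went into each well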
Sa RN4220 lethal: kills Staphylococcus aureus RN4220 | S. aureus RN4220 growth, OD600, 16 h | inhibition, % (concentration not given with the values) | hit rate 0.33% among 330,000;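 active = z-score of -3 or lower and OD600 up to 0.18 on both plates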;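 note: plate controls were untreated cells for no effect and reference antibiotic for full effect; stock transfer was 100 nL into about 80 µL; one replicate is shown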
Mtb hypoxia inh: reduces hypoxia-regulated biosensor signal in M. tuberculosis. M. tuberculosis hypoxia-regulated fluorescent reporter, fluorescence. fluorescence inhibition, % (concentration not given with the values). hit rate 0.1% among 300,000;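 active = 35 to 45% if threefold the growth effect, above 45% if 1.5-fold the growth effect; inactive = the rest, general growth blockers included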;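 note: wells of about 50 µL received 100 nL stock; 0% = vehicle wells and 100% = reference inhibitor wells; whole bacteria with a GFP reporter of the hypoxia response; strong numbers were not always called active; many hits fall short of the cut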
ugtP null kill: growth inhibition of S. aureus ugtP deletion strain; S. aureus RN4220 ugtP deletion, OD600 growth, 16 h; some inactives read as strong as hits; growth inhibition, % (no concentration beside the values); hit rate 0.54% among 330,000; AID 1259309;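 active = z-score under -3 and OD600 up to 0.15 on both plates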;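 note: plate controls were untreated wells for no effect and antibiotic for full effect; wells of about 80 µL received 100 nL stock; the first replicate is given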
Mtb hypoxia inh growth: further read-out of Mtb hypoxia inh, marked with its call; growth inhibition, %; measured here: M. tuberculosis growth (absorbance);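 0% = vehicle and 100% = reference antibiotic; read after six days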
The depositor's hits bear a star; . = no result given.

mol,BJeLR lethal,PrP 5UTR inh,Bead autofluor,Sa RN4220 lethal,Mtb hypoxia inh,Mtb hypoxia inh growth,ugtP null kill
Cc1c(C)n(CCCN(C)C)c2ncnc(NCc3ccccc3)c12,7,-16,4056,-0.3,7,-11,7
O=S(=O)(Nc1ccc(-c2cn3ccccc3n2)cc1)c1ccccc1,4,-26,3432,-1.5,11,3,3
Cc1ccc(N2C(=O)Nc3ccc(Br)cc3C2(O)C(=O)NCCCN(C)C)cc1C (configuration not stated),4,-1,3718,6.9,11,9,-5
Cc1ccc(NC(=S)N2CCN(C)CC2)c(C)c1,3,-14,2640,4.5,3,1,11
COc1ccc(CNC(=O)COC(=O)CCC2CCCCC2)cc1,6,-12,10056,2.0,-9,-1,-3
CCOC(=O)C1=NNC2C(=O)N(C3CCCCC3)C(=O)C12 (configuration not stated),2,-3,2795,-2.6,.,.,5
Cc1ccc(C(=O)C2C(c3ccc(-c4ccccc4[N+](=O)[O-])o3)NC(=O)NC2(O)C(F)(F)F)cc1 (configuration not stated),4,6,4857,11,15,5,-1
CC(NS(=O)(=O)/C=C/c1ccccc1)C(=O)NCCc1ccc(S(N)(=O)=O)cc1 (configuration not stated),0,-18,4491,12,10,2,5
Cc1cccc(-n2cc(-c3ccc([N+](=O)[O-])cc3)[nH]c2=S)c1,-5,-27,10483,2.7,5,-9,-3
CCOC(=O)Cn1cncc1-c1ccc([N+](=O)[O-])cc1,-14,-68,2377,2.1,.,.,3
COc1ccc2c(c1)c1ncn(Cc3ccccn3)c(=O)c1n2C,0,-18,5116,1.5,-2,7,-2
COC(=O)/C=C/c1c(C)[nH]c(=O)[nH]c1=O,0,-8,4598,8.2,-10,11,7
CC(C)N(Cc1ccccc1)C(=S)Nc1cccnc1,5,-34,5126,5.4,0,14,6
CC(C)NS(=O)(=O)c1ccc(OCC(=O)Nc2ccc3c(c2)OCO3)cc1,-2,-9,3863,7.4,9,11,10
O=C(NC1CCCCCCC1)C1CCN(S(=O)(=O)N2CCCC2)CC1,5,-17,5927,2.6,0,-1,0
Cc1c(Cl)cccc1N1C(=O)c2ccccc2C1=O,3,4,25160*,-1.1,4,5,6
CC(C)(CO)C(O)C(=O)NCCC#N (configuration not stated),6,-27,4980,3.6,.,.,-14
CCC(C)(C)NC(=O)C(c1ccc(OC)cc1)N(C(=O)CCC(=O)Nc1cc(C)on1)c1ccc2c(c1)OCCO2 (configuration not stated),8,-25,5292,3.9,2,5,5
CCOC(=O)c1ccc(NC(=O)C2(c3ccc(Cl)cc3)CCCC2)cc1,10,-8,3206,18,-3,14,-7
Cc1cc(NC(=O)Cn2nc(-c3cccs3)ccc2=O)cc(C)c1Br,-1,-14,3391,-0.2,4,1,4
COCCNc1nc2nonc2nc1NC(C)c1ccccc1Cl (configuration not stated),1,-8,2655,2.8,-10,-9,-2
CC(=O)Nc1cc(C(=O)N2CCc3ccccc3C2)ccc1Sc1ccc(F)cc1,-8,6,2720,1.0,6,0,2
Cc1ccc(C(=O)OCc2nc3ccccc3s2)o1,6,-61,5940,3.9,6,2,5
Brc1cc2c(cc1/C=N/Nc1nc(N3CCOCC3)nc(N3CCOCC3)n1)OCO2,-2,-24,2097,.,.,.,.
Clc1ccc(C2C3CN(Cc4ccc(-c5ccccc5)cc4)C(c4ccccc4)C34CC2(c2ccccc2)C4)cn1 (configuration not stated),.,.,.,-3.1,-6,4,1
N#Cc1ccc(COC(=O)c2ccccn2)cc1,9,.,.,8.7,12,3,3
COc1cccc(/C=C/C(=O)N2CCN(c3n[nH]c(=O)[nH]c3=O)CC2)c1OC,2,0,4520,-1.3,7,3,1
CCC(C)C(=O)Nc1nc2ccc(OC)cc2s1 (configuration not stated),-5,-111,.,-1.6,0,22,-5
CC(C)C(C(=O)NCc1ccco1)N(Cc1ccco1)C(=O)CNS(=O)(=O)c1ccccc1 (configuration not stated),0,-8,3818,2.2,15,1,-4
Cc1cccc(N2C(=O)CS/C2=N\NC(=O)c2cccnc2)c1C,-4,-30,4676,.,.,.,.
Cn1c(=O)c2[nH]c(NCCCN3CCOCC3)nc2n(C)c1=O,6,-3,2936,3.5,.,.,9
Cc1ccccc1/C=N/n1c(-c2ccccn2)n[nH]c1=S,-10,1,3232,.,.,.,.
O=C1N/C(=N\N=C\c2cccs2)SC1Cc1ccc(Cl)cc1Cl (configuration not stated),5,-11,2551,.,.,.,.
Nn1cnnc1SCC(=O)N1CCc2ccccc2C1,.,-8,6472,4.9,9,-4,3
Cc1cc(NC(=O)CSc2c(C)[nH]c3ccccc23)no1,7,-14,5575,3.2,1,-1,0
Nc1n[nH]c(N)c1N=Nc1ccc(F)cc1,-1,8,4776,1.5,2,0,9
Cc1cc(C=NNC(=O)c2cccnc2)c(C)n1CC(C)C,.,.,.,5.1,18,3,6
Cc1cc(O)cc(OC2OC(CO)C(O)C(O)C2O)c1 (configuration not stated),.,.,.,8.2,6,9,3
COc1ccccc1CNC(=O)C(=O)NCC1CCCO1 (configuration not stated),0,-12,2623,-2.5,-1,1,-8
O=c1[nH]nc(-c2ccc(NCCCO)c([N+](=O)[O-])c2)c2ccccc12,12,-6,3479,3.8,-4,9,9
O=C(COC(=O)CNC(=O)c1ccccc1)NC(=O)NC1CCCCC1,.,-11,2909,4.3,10,3,11
CCSc1cc(N2CCOCC2)nc(-c2ccccc2)n1,6,-31,2042,.,.,.,.
CC(=O)c1ccc(Oc2nc3c(c(=O)n(C)c(=O)n3C)n2C)cc1,5,-4,4386,-0.4,12,6,2
Cc1cc(N/N=C/c2ccc3c(c2)OCO3)nc2ccccc12,-2,-104,4095,.,.,.,.
CCOC(=O)N/N=C/c1cccc(Cl)c1Cl,-13,-16,2625,.,.,.,.
CC(=O)Nc1ccc(Nc2nc(-c3cc4ccccc4oc3=O)cs2)cc1,2,-74,3041,1.2,12,1,0
COc1ccc(N2C(=O)C3C4C=CC(CC4)C3C2=O)c([N+](=O)[O-])c1 (configuration not stated),5,-32,11680,-4.2,-2,6,-3
CCOC(=O)c1sc2ncn(/N=C/N(C)C)c(=O)c2c1C,-1,-34,10080,.,.,.,.
CCOC(=O)c1ccc(N=C2SC(C(=O)NC)CC(=O)N2Cc2ccc(F)cc2)cc1 (configuration not stated),15,-49,3953,1.0,11,-4,7
CC1CCCCN1S(=O)(=O)c1ccc(NC(=O)c2ccco2)cc1 (configuration not stated),-1,-2,20490*,4.7,2,5,1

Other results.
mol,BJeLR lethal,PrP 5UTR inh,Bead autofluor,Sa RN4220 lethal,Mtb hypoxia inh,Mtb hypoxia inh growth,ugtP null kill
Cc1ccc(N(CC(N)=O)C2SC(=O)N(Cc3ccccc3)C2=O)cc1 (configuration not stated),-6,15,10087,4.8,15,2,-1
O=C(c1ccc2c(c1)OCO2)N1CCN=C1SCc1cccnc1,-3,4,3996,3.5,.,.,7
O=C(Cn1cnc2c(cnn2-c2ccc(F)cc2)c1=O)N1CCN(c2ccccc2F)CC1,1,-19,7945,2.4,3,6,11
CC(C(=O)OCC(=O)Nc1cccc(S(=O)(=O)N2CCOCC2)c1)N1C(=O)c2ccccc2C1=O (configuration not stated),5,-19,4654,-0.9,13,4,7
O=C(Nc1ccc(OCC(=O)N2CCOCC2)cc1)c1ccccc1Cl,0,-16,6435,-3.9,-9,-3,-2
CC1CCN(S(=O)(=O)c2cccc(C(=O)O)c2)CC1,1,-21,8021,4.6,9,3,12
O=[N+]([O-])c1ccc(/C=N/n2c(CO)nc3ccccc32)s1,3,-4,1958,.,.,.,.
COC(=O)NCC12CC3CC(C1)CC(CNC(=O)OC)(C3)C2,0,-19,6491,4.3,6,3,2
CCCN(CCC)CCNC(=O)CCC(=O)Nc1ccc2nc(N3CCOCC3)cc(C)c2c1,10,-24,3536,-3.1,-5,5,-6
Cc1ccccc1NS(=O)(=O)c1csc(C(N)=O)c1,-6,-17,3863,4.4,3,6,-3
CCOc1ccccc1C=Nc1ccccc1C(=O)Nc1ccccc1,-4,-12,2265,9.9,14,1,-3
C/C(=N\NC(=O)c1c(Cl)c(C)nn1C)c1ccc(NC(=O)c2ccncc2)cc1,5,-10,2210,.,.,.,.
CCOc1ccc2nc(NC(NC(C)=O)(C(=O)OC)C(F)(F)F)sc2c1 (configuration not stated),-7,.,5682,3.9,8,10,11
CC(C)CNc1c2c(nc3ccccc13)CCC2,5,-8,3853,1.4,2,-3,10
CN(C)S(=O)(=O)c1cccc(C(=O)NCc2cccs2)c1,1,-27,2632,1.1,.,.,2
Cc1ccccc1NS(=O)(=O)c1cc(C(=O)Nc2cccc(N(C)S(C)(=O)=O)c2)ccc1C,5,-12,12748,2.1,-2,5,-12
C=CCN1C(=O)/C(=C/c2cccs2)SC1=NS(=O)(=O)c1ccc(F)cc1,.,.,.,7.7,-2,-4,17
COc1ccc(Cl)cc1C(=O)NN=C1CCCC1,-8,-14,3338,6.2,-13,2,14
O=C(Nc1cc(Cl)ccc1-n1cncn1)c1cc(F)c(F)c(F)c1F,-11,-8,5419,7.2,8,3,-7
S=c1[nH]c2ccc(Cl)cc2s1,-1,-25,3042,.,.,.,.
CC1CN(C(=O)c2cn3ccccc3n2)CC(C)O1 (configuration not stated),-6,-4,3418,6.4,0,5,6
Nc1c(C(=O)NCC2CCCO2)c2nc3ccccc3nc2n1Cc1ccco1 (configuration not stated),-1,-11,4491,-2.2,-5,7,1
CC(C)(C)SCCNC(=O)/C=C/c1ccc(F)cc1,-7,-33,2252,-3.7,-3,7,5
COC(=O)c1cc(-c2ccc(OC)cc2F)nc2nc(SC)[nH]c(=O)c12,-13,-12,3812,6.2,0,0,-1
CC(C)(C)n1[nH]c2c3c(ccc2c1=O)C(=O)c1ccccc1C3=O,-6,-15,8719,75,9,6,61
CCCCNC(=O)CSc1nc2ccccc2c(=O)n1Cc1ccc2c(c1)OCO2,-2,-18,5950,2.9,14,0,1
COC(=O)CN1C(=O)N/C(=C/c2ccc(OC)cc2)C1=O,-9,-5,4207,5.7,-4,14,3
O=C(CN1CCOCC1)NCC12CC3CC(CC(C3)C1)C2,-2,1,3682,8.5,.,.,5
CCn1nc(C(=O)OC2CCOC2=O)c2ccccc2c1=O (configuration not stated),8,-13,4215,-9.5,.,.,2
NC(=O)COC(=O)c1cc(-c2cccs2)nn1-c1ccccc1,0,-24,4563,5.8,11,7,0
CC(Sc1nc(-c2ccccc2)cc(C(F)(F)F)n1)C(=O)NCc1ccco1 (configuration not stated),4,-25,4740,5.7,.,.,7
C=CCn1c(=N)n(CC(O)COc2ccccc2OC)c2ccccc21 (configuration not stated),3,2,4271,-9.9,5,2,0
CCCCC(=O)Nc1sc2c(c1C#N)CC(C)(C)OC2,7,-45,8546,.,.,.,.
Cc1ccc(NC(=O)CSc2nc3ccccc3c(=O)n2CCCN2CCCCC2)cc1C,0,-22,9617,1.6,12,14,-6
CCc1ccccc1NC(=O)COc1cccc(-n2cnnn2)c1,-4,-13,3834,5.3,-10,-6,5
CCOC(=O)CC1(C)SC(NC(C)=O)=NN1C(C)=O (configuration not stated),13,-10,1964,0.8,-2,5,-4
CCc1ccc(S(=O)(=O)Nc2cc3c(cc2N2CCCCC2)n(C)c(=O)c(=O)n3C)cc1,14,-11,5314,3.7,6,4,3

Screens: PubChem BioAssay, several laboratories

Hits appear at their usual frequency. Share with any hit: about 4.1%.
